Compound activity as filed in PubChem BioAssay.
NPYLR7 ag – agonists of mosquito NPYLR7 receptor, primary screen, cell-based, Aedes aegypti, calcium fluorescence, mosquito biting behavior; Aedes aegypti neuropeptide Y-like receptor 7 (NPYLR7); HEK293T NPYLR7/Galpha15, GCaMP6s calcium fluorescence; activation, % at 10 µM; actives 0.15% (n = 270,000); AID 1259423, 2018; in the data active means activation above about 40%;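 further: 0% = vehicle and 100% = reference agonist at the receptor; some compounds past the cut are filed as inactive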
NPYLR7 ag max-min – further read-out of NPYLR7 ag, marked with its call; activation, %; measured here: Max-Min RFU normalised activation; some inactives read as strong as hits;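 span of the calcium signal over five minutes; 0% = vehicle and 100% = native peptide agonist; compound fluorescence can raise it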
Starred values were filed as active, the others as inactive; & = joins results of further samples. An excerpt (hit frequency here may not be typical).

SMILES | NPYLR7 ag | NPYLR7 ag max-min
CCCCn1c(C2CC(=O)N(c3ccccc3F)C2)nc2ccccc21 (stereo unspecified) | -2 | 27
Cc1cccc(N2CCC(N3CCN(C4CCCCC4)C(CCO)C3)CC2)c1C (stereo unspecified) | 0 | -3
NC(=O)CSc1nc(=O)n(CCO)c2c1CCCC2 | -6 | -16
COC(=O)Cc1cnc(NC(=O)CN2CCCCC2c2cccnc2)s1 (stereo unspecified) | 20 | 16
COc1cccc(C(=O)NC(C(=O)N2CCOCC2)C2CCN(C(=O)c3ccco3)CC2)c1 (stereo unspecified) | -1 | -1
CCSc1ncnc2c1nnn2C | 0 | 10
Cc1ccc(COc2ccc(CNCCO)cc2)cc1 | 2 | 4
Cc1cccc(-c2cc(N)n(-c3ccc(C(=O)N4CCOCC4)cc3)n2)c1 | -10 | -13
COC(=O)CSc1nc(-c2ccccc2)cc(-c2cccc(F)c2)c1C#N | 0 | -1
Cc1cc(O)cc(=O)n1C(C)C(=O)NC1(c2ccc(Br)cc2)CC1 (stereo unspecified) | 6 | 2
CN(C)CCCN(C(=O)c1ccc([N+](=O)[O-])s1)c1nc2cc3c(cc2s1)OCO3 | 0 | 0
Cc1c(C(=O)NC2CCCCC2)c(C(F)(F)F)nn1C1CCCN(C)C1 (stereo unspecified) | 13 | 6
O=C(CNC(=O)C1COc2ccccc2O1)N=Nc1c(O)[nH]c2ccccc12 (stereo unspecified) | -4 | -10
Cc1ccc(C(=O)Nc2cccc(C(F)(F)F)c2)cc1Nc1nc(-c2cccnc2)nc2c1cnn2C | -4 | -10
Cc1ccc(-c2cc(C(=O)N3CCCC(N(C)CCc4ccccn4)C3)n[nH]2)s1 (stereo unspecified) | 10 | 10
CN(C)CCN(C(=O)c1cc(Cl)sc1Cl)c1nc2ccc(F)cc2s1 | -8 | -12
CCCCC(CC)c1nnc(NC(=O)c2cccs2)s1 (stereo unspecified) | -7 | -11
CCCN(Cc1c(C)nn(-c2cccc(F)c2)c1N1CCN(CC)CC1)C(=O)C(C)(C)CCl | -24 | -8
Cc1cccc(C)c1NC(=O)COc1cc(=O)n2cccc(C)c2n1 | -6 | -3
CN1CC2(CCN(C(=O)CCn3nnc4ccccc43)C2)OC1=O (stereo unspecified) | 7 | 5
C=CCCC(O)CN(Cc1ccco1)Cc1c(C)nn(-c2ccccc2)c1Oc1ccc(Cl)cc1 (stereo unspecified) | 7 | 11
CC1(C(=O)Nc2ccc3c(c2)OCO3)CCN1C(=O)CC(c1ccccc1)c1ccccc1 (stereo unspecified) | 0 | -1
COc1ccccc1-n1ncc2c(C)nnc(SCC(=O)NCc3ccccc3Cl)c21 | -10 | -19
COc1ccc(CCN(C)C2CCCN(C(=O)c3c4c(nn3C)CCCC4)C2)cc1OC (stereo unspecified) | 3 | 1

The last 6 records of the section before are carried over, then new ones follow:
SMILES | NPYLR7 ag | NPYLR7 ag max-min
Cc1cccc(C)c1NC(=O)COc1cc(=O)n2cccc(C)c2n1 | -6 | -3
CN1CC2(CCN(C(=O)CCn3nnc4ccccc43)C2)OC1=O (stereo unspecified) | 7 | 5
C=CCCC(O)CN(Cc1ccco1)Cc1c(C)nn(-c2ccccc2)c1Oc1ccc(Cl)cc1 (stereo unspecified) | 7 | 11
CC1(C(=O)Nc2ccc3c(c2)OCO3)CCN1C(=O)CC(c1ccccc1)c1ccccc1 (stereo unspecified) | 0 | -1
COc1ccccc1-n1ncc2c(C)nnc(SCC(=O)NCc3ccccc3Cl)c21 | -10 | -19
COc1ccc(CCN(C)C2CCCN(C(=O)c3c4c(nn3C)CCCC4)C2)cc1OC (stereo unspecified) | 3 | 1
CC(=O)Oc1cccc(C(=O)N2CCN(c3nccc(-c4ccc(Oc5ccccc5)cc4)n3)CC2)c1C | 7 | 1
CC1CC(=O)Nc2c1c(NC(=O)C1CCN(S(C)(=O)=O)CC1)nn2C (stereo unspecified) | -16 | -23
CC(C)(C)c1ncc2c(n1)CN(C(=O)CNS(C)(=O)=O)C2 | 13 | -1
CC(=O)Oc1ccc2c(=O)c(-c3ccc4c(c3)OCCO4)c(C)oc2c1 | -5 | -8
CN(C)c1ccccc1NC(=O)C1CCN(C(=O)c2cccs2)CC1 | 1 | 0
Cc1nc(SCCC(=O)Nc2cccc(Cl)c2N(C)C)n[nH]1 | 5 | 2
CNc1nnc(SC(C)c2nc(-c3ccco3)no2)s1 (stereo unspecified) | -6 | -5
CCc1[nH]n(-c2ccc(Cl)c(Cl)c2)c(=O)c1C1=C(N2CCN(C)CC2)C(=O)N(c2cccc(Cl)c2)C1=O | -7 | -14
CC(C)c1cnc(CN2CCCN(Cc3ccc(C#N)cc3)CC2)o1 | 1 | -1
CCOC(=O)c1c(NC(=S)NC2CC3CCC2C3)sc(C)c1C (stereo unspecified) | 4 | 3
Cc1cc(=O)[nH]c(-n2nc(-c3cccs3)cc2NC(=O)C2CCCCC2)n1 | -3 | -5
CC(=O)c1cccc(-n2c(C3C4CCCCC43)n[nH]c2=S)c1 (stereo unspecified) | -6 | -15
CC1=NN(c2ccccc2)C(c2ccc(O)cc2)C1 (stereo unspecified) | -9 | -14
CCOC(=O)c1cccc(NC(=O)N(C)CCc2ccc(OC)c(OC)c2)c1 | -6 | -8
COc1cc(OC)c(OC)cc1CNC(=O)CN(C)Cc1ccsc1 | 6 | 2
Cc1cc(C)c(C)c(S(=O)(=O)NCCN2CCOCC2)c1C | 4 | 0
O=C(Cn1c(CO)cnc1SCC(=O)N1CCc2ccccc21)NC1CC1 | 8 | 2
COc1ccc(C(=O)NC(C)c2cc(F)ccc2N2CCN(C)CC2)cc1Br (stereo unspecified) | -5 | -6
CCN(CC)c1ccc2cc(C(=O)Nc3cccc4ccccc34)c(=O)oc2c1 | 11 | 3
Cc1cc(C)n(CC2CN(C3CCOC3=O)CCO2)n1 (stereo unspecified) | 1 | 0
CCCCN(Cc1cccn1Cc1ccc(Br)cc1)C(=O)CN(CCOC)C(=O)N(C)C | -12 | -10
COc1cc2c(cc1OC)C1CN(C(=O)c3cccnc3Cl)CC(=O)N1CC2 (stereo unspecified) | 34 | 35
C(=C\c1ccc2ocnc2c1)/c1ccccc1 | 3 | 8
CC1=NOC(Cc2ccccc2)C(=O)N1Cc1ccccc1F (stereo unspecified) | 7 | 4

Profiles as entered above. Screens in order: NPYLR7 ag | NPYLR7 ag max-min
CC1(C(=O)Nc2ccc3c(c2)OCO3)CCN1C(=O)CC(c1ccccc1)c1ccccc1 (stereo unspecified) as listed: 0 | -1
CCCCN(Cc1cccn1Cc1ccc(Br)cc1)C(=O)CN(CCOC)C(=O)N(C)C as listed: -12 | -10
O=C(Cn1c(CO)cnc1SCC(=O)N1CCc2ccccc21)NC1CC1 as listed: 8 | 2

(next part)
SMILES | NPYLR7 ag | NPYLR7 ag max-min
C=CCN(C(=O)Nc1c(C(C)C)cccc1C(C)C)C(C)C(=O)c1c(C)c(C(=O)OC)n(C)c1C (stereo unspecified) | -9 | -1
CCOC(=O)C1CCCN(c2nc(Cc3ccc(Cl)cc3)ns2)C1 (stereo unspecified) | 19 | 18
Cc1cccn2c(=O)nc(SCc3c(F)cccc3Cl)nc12 | -1 | -5
COc1ccc(CCN2C3CCC2CC(NC(=O)c2ccc(C(F)(F)F)c(F)c2)C3)cc1OC (stereo unspecified) | 1 | 3
CN(C)CCOc1ccc(N(C)C(=O)N(C)Cc2ccon2)cc1 | 0 | -1
CC(C)CN(Cc1cccn1Cc1ccccc1Cl)C(=O)CN(C(=O)COCc1ccccc1)C(C)C | -7 | 2
CC1(C(=O)Nc2ccc3c(c2)OCO3)CCN1C(=O)C1(c2ccc(Cl)cc2)CC1 (stereo unspecified) | 1 | 1
Nc1cc(S(=O)(=O)c2ccc(Br)c(N)c2)ccc1Br | 9 | 2
CC(=O)Nc1nc(C(=O)N2CCCC2Cc2ccccc2Cl)cs1 (stereo unspecified) | 5&7 | 1&6
CCOC(=O)CSc1nc(C)c(C)c(C)c1C#N | 23 | 11
O=C(NCC1Cc2cc(Oc3ccccc3)ccc2O1)c1ccc(Cl)nc1 (stereo unspecified) | 1 | -1
Fc1ccc(-c2nccc3[nH]nc(-c4cccnc4)c23)cc1 | 2 | 1
CCCC(=O)OCC(O)CN(Cc1nc2sc3c(c2c(=O)[nH]1)CCC3)C1CCCCC1 (stereo unspecified) | 6 | 5
O=C(CN1CCOC(C(F)(F)F)C1)NCc1ccccn1 (stereo unspecified) | 3 | -8
C/C=C/c1ccc(OC(C)[C@@H](O)c2ccc(O)c(OC)c2)c(OC)c1 (stereo partly specified) | 6 | 6
CC(C)c1ccc(NC(=O)CSc2ncc(S(=O)(=O)c3ccc(C(C)(C)C)cc3)c(=O)[nH]2)cc1 | 8 | 5
Clc1ccc(-c2nc(-c3cccnc3)no2)cc1Cl | 1 | 3
C=C(C)Cn1c(NN=Cc2ccc(O)c(OCC)c2)nc2c1c(=O)n(C)c(=O)n2C | -13 | -14
COc1ccc(-c2ccccc2)cc1CNc1cnn(C(C)C)c1 | 2 | 0
Cc1ccc(-n2ncc3c(-n4nc(C)cc4NC(=O)c4cccc(F)c4)ncnc32)c(C)c1 | 1 | 0
CC(C)C1N2CC3([N+](=O)[O-])CN1CC([N+](=O)[O-])(C2)C3(C)C (stereo unspecified) | 12 | 10
COc1ccc(OCC(O)CN(Cc2ccc(F)cc2)Cc2ccco2)cc1 (stereo unspecified) | 38 | 36
CCOC(=O)C1(CCCc2ccccc2)CCCN(C(=O)Cn2cccn2)C1 (stereo unspecified) | 3 | -1
Cc1ccn2c(NC3CCCCC3)c(-c3ccc(OC(=O)c4cccc(Br)c4)cc3)nc2c1 | 7 | 3
Cc1cc(N2CCc3nc[nH]c3C2)nc(-c2ccccc2)n1 | 8 | 5
Nc1nc(-c2ccc3c(c2)CCCC3)c(CC(=O)O)s1 | -1 | 19
O=S(=O)(Nc1cc2c(cc1Br)OCCO2)c1cccc(Br)c1 | 0 | -1
CC(=O)c1cc(CN2CCCC(C(=O)Nc3cccc(-n4cccn4)c3)C2)cs1 (stereo unspecified) | 1&9 | -3&2
Cc1ccc(CN(C)C(=O)c2cc(C(C)C)[nH]n2)o1 | 2 | 1
CCOc1ccccc1NC(=O)Cn1cc(OC)c(=O)cc1CSc1nc(C)cs1 | -3 | -7
O=C(Nc1ccc(-c2noc(-c3cccc(Cl)c3)n2)cc1)c1cccc(Cl)c1 | -4 | -8
N#Cc1ccc(S(=O)(=O)NCC2Cc3ccccc3O2)cc1 (stereo unspecified) | -2 | -2
COCCCNS(=O)(=O)c1ccc(S(=O)(=O)N2CCCC2)cc1 | 8 | 5
CC(=O)NC1=C(N(C)C2CCS(=O)(=O)C2)C(=O)c2ccccc2C1=O (stereo unspecified) | 3 | -1
COc1cc(-c2nc(C=Nc3ccc(C)cc3Br)c(O)o2)cc(OC)c1OC | -2 | -6
CC1=C(C(=O)OCCOc2ccccc2)C(c2ccc(Cl)cc2)NC(=O)N1C (stereo unspecified) | 3 | -1
COc1ccc(N(C(C)=O)c2nc(/C=C3\SC(=S)NC3=O)cs2)cc1 | 7 | 12
CSc1nnc(C)c(=O)n1COC(=O)c1ccc(F)c(F)c1 | 1 | -3
O=C(Cn1cnc2ccsc2c1=O)Nc1ccccc1Cl | 0 | -2
CCCN(Cn1nc(Nc2ccccc2F)sc1=S)C1CCS(=O)(=O)C1 (stereo unspecified) | 4 | 8
Cc1nnc(NC(=O)CSc2n[nH]c(-c3ccccc3)n2)s1 | 6 | 13
Cc1ncc2c(c1CNC(=O)/C=C/c1ccccc1)CCN(C(=O)C1Cc3ccccc3O1)C2 (stereo unspecified) | -3 | -7
CCn1c(SCc2cccc(C#N)c2)nnc1-c1ccc(Cl)cc1 | -1 | 6
CN(C)c1ccc(/C=N\Nc2cc(N3CCCCC3)nc(N3CCCCC3)n2)cc1 | -6 | -9
CN1CCNC(=O)C12CCN(C(=O)c1ncn[nH]1)CC2 | 24 | 11
Cn1c(=O)n(Cc2ccc(Cl)cc2Cl)c(=O)c2c1nc1oc(C(C)(C)C)cn12 | -3 | 3
NC(=O)c1c(N)sc2c1CCCC2 | 2&5 | 3&3
CCn1nc(CC(C)C)cc1C(=O)NC1CCCCNC1=O (stereo unspecified) | 3 | 3
CCn1cc(CN2CCCC(CNC(=O)c3ccc(-c4ccccc4)cc3)C2)cn1 (stereo unspecified) | 12 | 6
O=C1N(CC2CC2)CCCC12CCN(S(=O)(=O)Cc1ccccc1)C2 (stereo unspecified) | -3 | -5
COc1ccc(N2CCN(Cn3nc4c(Cl)cc(Cl)cn4c3=S)CC2)cc1 | 5 | 9
Cc1ccc(-c2cc3nn(-c4ccccc4)c(N)c3c(=O)o2)cc1 | -6 | -9
Cc1nc(-c2ccc(-n3ccnc3-c3ccccc3Cn3cccn3)cc2)n[nH]1 | 5 | 2
O=C(CCN1CCSC1=O)Nc1nc(-c2cccc(F)c2)cs1 | 11&4 | 4&6
CCC(c1ccc(C)cc1)C(C(=O)O)C(=O)O (stereo unspecified) | 4 | 6
N#CCCn1cc(/C=C2\C(=O)Nc3cc(Cl)ccc32)c(-c2ccccc2)n1 | -2 | -3

Other results.
SMILES | NPYLR7 ag | NPYLR7 ag max-min
COc1cccc(C2CCCCN2Cc2c(C)noc2C)c1 (stereo unspecified) | 2 | 1
COc1cc2c(cc1-c1c(-c3ccccc3)ncn1CC(N)=O)CCC2 | -1 | -2
COc1ccc2[nH]c(=O)c(CN(C)Cc3nc(C4CC4)no3)cc2c1 | 18 | 4
CCOc1ccccc1-c1nccn1-c1cccc(N2CCCC2=O)c1 | 5 | 1
